Compound activity from PubChem BioAssay.
Menin MLL FP FL – inhibitors of human menin-MLL interaction, wild-type MLL peptide; 290,000 tested, under 10 active; AID 1766; Fluorescence polarization, fluorescein-MLL peptide displacement from menin; FP activity change, % at 61.4 µM; inconclusive = falling polarisation curve, or a change in total fluorescence; inactive = total fluorescence flat and polarisation flat or rising; no compound was filed as active; the % refers to the polarisation; negative = inhibition;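 further: % of control where 0% means no effect; inhibitors lower the polarisation; unlabelled MLL peptide was the positive control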
D2 agonist – activates the human D2 dopamine receptor; DiscoveRx PathHunter D2 beta-arrestin, luminescence, 90 min; 100% = 57 uM dopamine signal; activation, % (concentration not given with the values); 0.084% of 360,000 active; AID 624465; in the data active = activation above about 40%; inconclusive = about 15% to 40%; inactive = below about 15%; further: compound concentration not given in the record; the text of the record calls up to 30% inactive
Target sequence (P14416 whole entry, looked up): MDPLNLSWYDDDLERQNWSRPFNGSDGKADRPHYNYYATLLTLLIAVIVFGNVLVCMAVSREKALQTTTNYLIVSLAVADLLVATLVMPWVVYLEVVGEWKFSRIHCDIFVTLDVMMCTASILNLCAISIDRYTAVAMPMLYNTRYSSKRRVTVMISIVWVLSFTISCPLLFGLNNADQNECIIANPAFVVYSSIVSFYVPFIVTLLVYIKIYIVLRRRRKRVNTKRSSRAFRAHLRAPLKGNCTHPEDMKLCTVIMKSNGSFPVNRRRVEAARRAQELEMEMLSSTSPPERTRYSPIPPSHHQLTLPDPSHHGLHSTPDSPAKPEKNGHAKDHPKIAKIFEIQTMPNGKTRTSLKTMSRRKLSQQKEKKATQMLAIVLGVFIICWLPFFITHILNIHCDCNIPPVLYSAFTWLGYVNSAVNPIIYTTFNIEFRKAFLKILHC
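DiscoveRx PathHunter D2 beta-arrestin cells (2,100/well) attached overnight, then compound-stimulated 90 min at 37 C in HBSS/10 mM HEPES/0.1% Tween-20 buffer; beta-galactosidase complementation read by luminescence after 1 h at ambient temperature. Dopamine 57 uM final (EC100) as control.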
ClpP mod – qHTS Assay for Activators of ClpP; ATP-dependent Clp protease proteolytic subunit (Bacillus subtilis (strain 168)), P80244; Potency, µM (doses to about 57.5 µM), for the others: at the top dose activity change, negative = active; purified B. subtilis ClpP, FRET peptide cleavage, 20 min; 1.9% of 340,000 active; active = well fitted falling curve with a large enough effect; inconclusive = small, poorly fitted or top-dose-only effect; inactive = no such curve, though single readings can be large or run the other way; further: potency means the concentration at half of the fitted maximal effect; the source files actives as falling curves though it sought activators and does not explain the sign; nearly all actives have a fitted effect of over 65% in size; many hits overshoot -100%
Target sequence (P80244 whole entry, looked up): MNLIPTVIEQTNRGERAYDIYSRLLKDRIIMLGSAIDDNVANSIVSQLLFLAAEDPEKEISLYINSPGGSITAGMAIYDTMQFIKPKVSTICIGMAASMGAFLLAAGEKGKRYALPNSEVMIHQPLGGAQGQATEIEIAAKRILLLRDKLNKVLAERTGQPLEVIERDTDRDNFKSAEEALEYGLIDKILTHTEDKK
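FRET quenching reversal measured ClpP activation: 10 microg/mL B. subtilis ClpP at pH 8 with the FRET-FV decapeptide, read at 430 nm after 320 nm excitation. The 20-min minus 0-min signal was scaled between DMSO/no-enzyme wells and ADEP (5.8 microM final).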
PINK1 modulator – changes PINK1 expression; AID 624263; 0.2% of 410,000 active; PINK1 immunofluorescence, high-content cytometry, 24 h; Potency, µM (series often up to 76.6 µM), inactives show top-dose activation (PINK1 increase), most hits filed as activators; active = well fitted activation curve with a large enough effect; inconclusive = small, poorly fitted or top-dose-only effect; inactive = flat fitted curve, though single readings scatter; cell line not stated here;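 further: potency means the concentration at half of the fitted maximal effect; % of control where 0% means no effect; nearly all actives have a fitted effect of over 65% in size; a mitochondrial uncoupler was the plate control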
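Stable cell line treated 24 h with compounds at 5 concentrations (CCCP controls), then fixed and immunostained for PINK1 plus nuclear and cell stains; PINK1 immunofluorescence quantified by laser-scanning microplate cytometry.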
gsp antagonist – antagonizes gsp, the McCune-Albright syndrome mutation; 0.4% of 340,000 active; AID 624288; Potency, µM (doses to about 76.9 µM), without a hit: at the top dose activity change, negative = inhibition, usual class: inhibitors; gsp-mutant cells, cAMP HTRF, 30 min; control for the full effect not named in the record; active = falling curve of any shape with a large fitted effect; inconclusive = falling curve, mostly with a smaller effect; inactive = flat or rising curve; cell line not stated here;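 further: intracellular cAMP measured with PDE inhibitor Ro 20-1724 present during compound exposure; potency means the concentration at half of the fitted maximal effect; on the % scale 0 is the no-effect control and ±100 the full control effect; nearly all actives have a fitted effect of over 65% in size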
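HTRF cAMP measurement after 30 min RT detection following 30 min, 37C compound treatment alongside […] (added as 300 uM solution) in G418-selected cells seeded at 2000/well and grown 16–24 h.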
Sfp PPTase inh – Sfp phosphopantetheinyl transferase inhibition; Potency, µM, without a hit: max response, negative = inhibition, usual class: inhibitors; 3.5% of 310,000 active; AID 1490; Q9F4F7; Biochemical Sfp PPTase activity, qHTS; active means well fitted inhibition curve with a large enough effect; inconclusive means small, poorly fitted or top-dose-only effect, or another doubt; inactive means no such curve, though single readings can be large or run the other way;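 further: the enzyme is Sfp with the accession as filed and its product quenches rhodamine fluorescence; potency means the concentration at half of the fitted maximal effect; 0% = enzyme reaction without inhibitor and -100% = no enzyme wells; top concentration of the series not given in the record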
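Buffer: 50 mM Hepes-Na pH 7.6, 10 mM MgCl2, 0.01% Nonidet P-40, 0.01% BSA. Enzyme 15 nM, pre-exposed to compound 15 min; substrates then added and fluorescence change tracked over 30 min.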
gsp ag – activates gsp, the McCune-Albright syndrome mutation. gsp mutant cells, cAMP HTRF, 30 min; control for the full effect not named in the record. AID 624287. 0.13% of 340,000 active. Potency, µM (titrated, usually from 76.9 µM), inactives show top-dose activation (cAMP increase), most hits filed as activators; active = well fitted activation curve with a large enough effect; inconclusive = small, poorly fitted or top-dose-only effect, or another doubt; inactive = no such curve, though single readings can be large or run the other way; cell line not stated here;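 further: phosphodiesterase inhibitor Ro 20-1724 added with compounds to block cAMP breakdown; potency means the concentration at half of the fitted maximal effect; nearly all actives have a fitted effect of over 60% in size; about a fifth of the inactives were tested at one dose only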
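Cells in DMEM/10% FBS with G418 were pretreated with compounds in DMSO plus […] (300 uM stock) for 30 min at 37C. cAMP was measured by HTRF (cAMP-d2 plus anti-cAMP antibody-K) after 30 min at room temperature.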
The depositor's hits bear a star; ? = inconclusive; · = no result given; [ ] = dose if it differs, or a comment.

Sequence of screens – Menin MLL FP FL	D2 agonist	ClpP mod	PINK1 modulator	gsp antagonist	Sfp PPTase inh	gsp ag
CN(c1ccc(C(=O)NCCSC(C)(C)C)cc1)S(C)(=O)=O
  -0.3	-0.3	10µM*	2.3%	1%	14%	-2%
CCNc1ncc2nc(-c3ccc(Cl)cc3)c(=O)n(-c3ccccc3)c2n1
  ?	·	·	13µM*	·	28%	·
COc1ccc(CNC(=O)c2cc(S(=O)(=O)N3CCCC3)cn2C)cc1
  0.1	4.3	-0.2%	-0.1%	11%	?	-54%[inhibitor]
COc1ccc(CNC(=O)Nc2nc(C(N)Cc3ccc(C(F)(F)F)cc3)cs2)cc1 (centres undefined)
  ·	?	-1.1%	-1.4%	·	·	·
FC(F)(F)c1cc(CN2CC3(CCNCC3)C2)cc(C(F)(F)F)c1
  7.6	·	·	0.1%	·	0%	·
COC(=O)c1ccc(C)c(-n2c(=O)n(Cc3ccccc3)c(=O)c3[nH]cnc32)c1
  8.5	-13	·	5.1%	13%	-19%	-18%
COC(=O)CS(=O)(=O)c1cc([N+](=O)[O-])ccc1NC(=O)OC
  -5.9	-2.6	·	-0.4%	-27%	8%	-5%[15.4 µM]
Cc1cc(=O)oc2cc(OCCC[n+]3ccccc3)ccc12
  0.0	1.1	·	0.1%	0%	5%	29%
Cc1ccc(C(=O)Oc2cccc(NC(=O)c3ccco3)c2)cc1S(=O)(=O)N1CCC(C)CC1
  0.3	-2.5	-10%	1.6%	-6%	10%	3%
COc1ccc(CNC(=O)C2COc3ccccc3O2)cc1 (centres undefined)
  -1.4	-2.1	-1.8%	-0.2%	-2%	1%	-7%
COc1cc([N+](=O)[O-])ccc1NC(=O)Cn1ccsc1=N
  -1.3	-2.5	·	0.6%	-2%	2%	2%
CCn1c(COc2ccccc2C)nnc1SCC(=O)CC(=O)Nc1ccccc1OC
  6.7	-3.5	-2.8%	-0.9%[38.3 µM]	-23%	18%	-49%[inhibitor]
CCCc1cc(=O)[nH]c(SCC(=O)N(CCC#N)c2ccc3c(c2)OCCO3)n1
  ·	-2.2	-1.8%	2.2%	6%	·	8%
COC(=O)CN(C)C1CC(=O)N(c2ccc(Cl)cc2)C1=O (centres undefined)
  -0.9	-4.1	1.1%	-2.6%	-2%	?	?
C[C@@H]1CN([C@H](C)CO)C(=O)CCCn2nncc2CO[C@H]1CN(C)Cc1ccccc1C(=O)O
  ·	-6.6	-0.4%	2.8%	·	·	1%
CC(=O)N1CCN(CCN=CC2=C(O)CC(c3ccco3)CC2=O)CC1 (centres undefined)
  1.4	-5.4	-0.4%	-1.9%	6%	-7%	-27%
O=C1/C(=C/c2ccc(O)cc2)CCc2ccc([N+](=O)[O-])cc21
  1.8	-0.8	-0.7%	0.8%	5%	18%	-11%
COc1cccc(CC(NC(C)=O)C(=O)NC2CCN(S(=O)(=O)c3ccc(NC(C)=O)cc3)CC2)c1 (centres undefined)
  -0.9	-0.2	·	0.5%	3%	11%	15%[15.4 µM]
O=C(Cc1ccccc1)NCC(=O)N1CCCCCC1
  -0.1	2.1	4.3%	-4.4%[38.3 µM]	3%	0%	7%
COc1cccc(CN2CCC(n3nccc3NC(=O)CCOc3ccccc3)CC2)c1
  ·	-1.7	0.1%	-0.7%	-1%	11%	?
O=c1oc(-c2ccccc2)c(-c2ccccc2)c2ccccc12
  ·	-0.4	·	-2.2%	1%	·	-30%
COc1ccc(CCCC(=O)N/N=C/c2ccc(C)cc2)cc1
  -3.1	2.7	0.4%	-0.7%	-8%	-1%	-2%
COc1ccc(C)cc1S(=O)(=O)N1CCN(C(=O)c2ncoc2-c2ccc(C)cc2)CC1
  0.0	2.6	·	-1.5%	4%	12%	9%
O=C1C2C3C=CC(C3)C2C(=O)N1CCN1CCN(S(=O)(=O)/C=C/c2ccccc2)CC1 (centres undefined)
  2.6	1.4	·	0.2%	0%	-3%	7%[15.4 µM]
CCCCCc1c(C)nc(Nc2ccccc2)[nH]c1=O
  3.2	-1.6	-0.8%	?	-7%	1%	-9%
Cn1c(SCC(=O)NCC2CCCO2)nnc1-c1ccc(Cl)cc1 (centres undefined)
  ·	-2.9	-2.5%	2.6%	-2%	·	15%
O=C(CN1CCOc2ccccc21)N1CCC(Cc2ccccc2)CC1
  ·	-1.5	-2.7%	-0.4%	-11%	·	8%
CSc1nccc(Oc2cccc(C#N)c2)n1
  -0.3	-3.6	·	-1.6%	6%	0%	-24%
Cc1ccc2nc(SCC(=O)c3ccc4c(c3)OCO4)[nH]c2c1
  1.3	2.4	1.1%	·	-12%	45µM*	18%
O=C(CCc1nnc(-c2ccsc2)o1)N1CCCCC1CCn1ccnc1 (centres undefined)
  1.5	10	·	-0.2%	2%	8%	9%
O=C(Nc1ccncc1)C1CCN(S(=O)(=O)c2cccs2)CC1
  6.7	-4.9	0.4%	-2.0%	10%	19%	-4%[15.4 µM]
Cc1noc(C)c1CSCC(=O)N(CC(C)C)c1c(N)n(Cc2ccccc2)c(=O)[nH]c1=O
  ·	1.0	13%	-4.6%	17%	·	-1%
O=C(O)CC1Sc2nc3ccccc3n2C1=O (centres undefined)
  -1.4	-0.1	-3.2%	2.1%	-8%	4%	3%
O=C(NC1CCCCC1)c1ccc([N+](=O)[O-])cc1
  ·	3.5	·	2.5%	2%	·	-40%[inhibitor]
Cc1cccc(C)c1N1C(=O)C(Cl)=C(N2CCCC2)C1=O
  9.0	-4.9	-0.8%	2.5%	-9%	7%	25%
CCC(C)N(C(=O)CSc1nc(-c2ccccc2)cs1)C1CCS(=O)(=O)C1 (centres undefined)
  -0.1	-3.2	-0.9%	-2.5%	-10%	11%	5%
CCOC(=O)N1CCC(Nc2c(NCCCN(C)Cc3ccccc3)c(=O)c2=O)CC1
  -1.6	0.5	1.8%	0.7%	11%	-1%	11%
CSc1ccccc1OCc1cc(C(=O)N2CCN(C)C(c3ccccc3)C2)no1 (centres undefined)
  ·	3.7	0.7%	0.8%	-34%	·	-21%
COc1ccc(-c2ccc3c(c2)S(=O)(=O)c2cccc(C(=O)N4CCN(c5ccccn5)CC4)c2C3=O)cc1OC
  ·	1.5	?	-1.0%	·	·	?
CCCn1nnc(NC(=O)c2ccc3c(c2)OCO3)n1
  -0.1	-3.7	-2.3%	-0.9%	2%	11%	-7%[15.4 µM]
CN(Cc1ccccc1)C(=O)COC(=O)/C=C/c1ccc2c(c1)OCO2
  ·	-2.9	?	-0.2%	0%	·	2%
Cc1cc(C)n(-c2ccc(C(=O)OC(C)C)cc2)n1
  1.1	1.7	-3.0%	·	3%	5%	-7%
O=C/C(=C\Nc1ccccn1)c1nc2cc(Cl)ccc2o1
  12	-4.0	1.8%	-1.2%	-11%	-18%	7%
Cc1ccc(-c2nc3c(cnn3-c3ccccc3)c(=O)o2)cc1
  4.7	-2.2	8.8%	5.4%[38.3 µM]	4%	-2%	-6%
Cc1ccc(N(C(=O)c2ccncc2)C2C=CS(=O)(=O)C2)cc1 (centres undefined)
  5.4	-3.5	-2.0%	1.5%	2%	-16%	-4%
CCOc1ccc(S(=O)(=O)Nc2ccc(C(=O)N/N=C(\C)c3ccc(-n4ccnc4)cc3)cc2)cc1
  4.4	7.1	-5.2%	1.8%	-24%	2%	?
O=C(COC(=O)Cn1cc(C(F)(F)F)ccc1=O)NCc1ccccc1
  ·	-0.1	·	-0.8%	-5%	·	-1%[15.4 µM]
CCC(=O)Nc1nc2ccccc2n1Cc1ccc(Cl)cc1
  1.8	5.3	-0.1%	11%	8%	-6%	-1%
CCOc1ccccc1N1CCN(C(=S)NCc2ccccc2)CC1
  -4.2	-6.0	·	0.7%	-8%	-3%	2%
CN1OC[C@@H]2CN(Cc3cc(Cl)cc(Cl)c3)[C@H](c3cccc(-c4ccc(C#N)cc4)c3)C[C@@H]21
  ·	-11	-13%	1.0%	·	·	?
CNS(=O)(=O)c1ccc2ccccc2c1
  3.6	1.0	·	0.6%	6%	-6%	20%[15.4 µM]
CCOc1ccc(-c2cncc3nccn23)cc1
  ·	5.2	4.5%	-1.0%	·	·	·
COC(=O)c1sccc1-n1cccc1C(=O)C(=O)N1CCOCC1
  2.9	-3.7	-0.8%	-1.8%	-1%	-10%	-16%
CSc1cccc(N2CC(C(=O)N3CCN(S(=O)(=O)c4ccccc4Cl)CC3)CC2=O)c1 (centres undefined)
  ·	-0.1	0.3%	2.6%	-27%	·	11%
O=C(Nc1ccccc1-c1nc2ccccc2s1)c1cccnc1
  0.5	-6.5	-1.6%	3.8%	-17%	9%	0%[15.4 µM]
Cc1cc(C(F)(F)F)n(-c2nc(C(=O)O)cs2)n1
  -6.3	0.7	·	-0.9%	4%	14%	?
COc1ccc(N(CC(=O)NCCSCc2ccco2)S(=O)(=O)c2ccccc2)cc1OC
  ·	-3.9	-2.0%	2.5%	14%	?	-5%
Cc1c(NC(=O)CSc2ccccn2)c(=O)n(-c2ccccc2)n1C
  -1.9	-3.7	-1.1%	-2.1%	9%	?	-17%
CNc1nc(NCCCN2CCCC2=O)c2sccc2n1
  ·	-2.1	?	4.7%	·	·	·
Cc1nnc(NC(=O)CSc2nccn2-c2cccc(C)c2C)s1
  -0.5	1.5	-2.7%	5.9%	5%	-2%	?
CCOC(=O)c1cnc2c(cnn2C)c1NCc1ccc(OC)cc1
  9.3	-4.5	·	-0.9%	10%	16%	-7%

Reformatted as labelled records: two of the compounds above
Molecule: Cc1cccc(C)c1N1C(=O)C(Cl)=C(N2CCCC2)C1=O
  Menin MLL FP FL: 9.0 | D2 agonist: -4.9 | ClpP mod: -0.8% | PINK1 modulator: 2.5% | gsp antagonist: -9% | Sfp PPTase inh: 7% | gsp ag: 25%
Molecule: CCOC(=O)c1cnc2c(cnn2C)c1NCc1ccc(OC)cc1
  Menin MLL FP FL: 9.3 | D2 agonist: -4.5 | ClpP mod: · | PINK1 modulator: -0.9% | gsp antagonist: 10% | Sfp PPTase inh: 16% | gsp ag: -7%
